From PubChem
uPA surface inh: cell surface uPA generation inhibition; cell surface uPA generation assay, qHTS; Potency, µM (titrated, usually from 38.3 µM), for the others: at the highest dose activity change, negative = inhibition, most hits filed as inhibitors; 0.31% of 330,000 active; AID 540303; active means well fitted inhibition curve with a large enough effect; inconclusive means small, poorly fitted or top-dose-only effect; inactive means no such curve, though single readings can be large or run the other way; tested in mouse RAW 264.7 cells; further: potency means the concentration at half of the fitted maximal effect; on the % scale 0 is the no-effect control and ±100 the full control effect; nearly all actives have a fitted effect of over 55% in size
Tb PFK inh: blocks T. brucei phosphofructokinase; O15648; T. brucei PFK, ADP-Glo luminescence; Potency, µM (titrated, usually from 57.5 µM), inactives show top-dose activity, negative = inhibition, actives largely listed as inhibitors; 0.17% of 330,000 active;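 further: potency means the concentration at half of the fitted maximal effect; 0% = uninhibited 1x PFK enzyme wells and -100% = no-enzyme wells; nearly all actives have a fitted effect of over 60% in size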
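Compounds were pin-transferred as a titration series up to 57 uM into substrate buffer (0.5 mM F6P, 0.1 mM ATP, pH 8.0), then 1.25 nM PFK was added and reactions ran 45 min before ADP-Glo detection.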
USP2a inh: inhibitors of human ubiquitin-specific protease USP2a; USP2 core, Ub-CHOP2 coupled fluorogenic reporter, 485/531; Potency, µM (highest dose often 38.3 µM), for inactives: at the top dose activity change, negative = inhibition, most hits filed as inhibitors; 0.01% of 330,000 active; AID 463254;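 further: potency means the concentration at half of the fitted maximal effect; plate controls were DMSO wells for no effect and full inhibition by NEM control for full effect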
Target sequence (O75604 whole entry, looked up): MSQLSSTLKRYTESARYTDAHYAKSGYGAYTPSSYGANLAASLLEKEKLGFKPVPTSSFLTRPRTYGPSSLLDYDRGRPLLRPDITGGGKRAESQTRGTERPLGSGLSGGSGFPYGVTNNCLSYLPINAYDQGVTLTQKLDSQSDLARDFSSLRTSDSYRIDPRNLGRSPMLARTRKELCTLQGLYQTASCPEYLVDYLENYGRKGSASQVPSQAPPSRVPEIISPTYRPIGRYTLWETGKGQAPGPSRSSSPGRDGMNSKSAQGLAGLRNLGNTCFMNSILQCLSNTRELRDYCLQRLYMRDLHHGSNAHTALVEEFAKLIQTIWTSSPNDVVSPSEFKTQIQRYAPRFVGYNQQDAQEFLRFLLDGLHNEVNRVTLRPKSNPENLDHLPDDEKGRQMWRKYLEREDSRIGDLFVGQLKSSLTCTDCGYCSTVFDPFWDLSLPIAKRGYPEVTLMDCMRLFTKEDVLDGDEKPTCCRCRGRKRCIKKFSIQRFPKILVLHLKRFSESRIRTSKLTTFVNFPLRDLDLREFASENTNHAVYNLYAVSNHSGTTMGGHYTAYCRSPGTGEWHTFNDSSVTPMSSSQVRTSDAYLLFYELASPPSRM
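Deubiquitinase activity read as fluorescence (485/531 nm) after Ub-CHOP2 cleavage activates the enterokinase reporter on its substrate; USP2 core 10nM, Ub-CHOP2 and substrate 25nM each, 30min compound preincubation then 60min RT; data normalized to NEM, curves fitted.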
Eya2 phos inh: blocks the phosphatase activity of human Eya2 | Potency, µM (top dose mostly 76.9 µM), for the others: at the top dose activity, negative = inhibition, hits mostly inhibitors | 0.006% of 330,000 active | recombinant Eya2, OMFP fluorescence dephosphorylation (OMFP is methylfluorescein phosphate) | O00167 | AID 488837; further: potency means the concentration at half of the fitted maximal effect; on the % scale 0 is the no-effect control and ±100 the full control effect
Target sequence (O00167 whole entry, looked up): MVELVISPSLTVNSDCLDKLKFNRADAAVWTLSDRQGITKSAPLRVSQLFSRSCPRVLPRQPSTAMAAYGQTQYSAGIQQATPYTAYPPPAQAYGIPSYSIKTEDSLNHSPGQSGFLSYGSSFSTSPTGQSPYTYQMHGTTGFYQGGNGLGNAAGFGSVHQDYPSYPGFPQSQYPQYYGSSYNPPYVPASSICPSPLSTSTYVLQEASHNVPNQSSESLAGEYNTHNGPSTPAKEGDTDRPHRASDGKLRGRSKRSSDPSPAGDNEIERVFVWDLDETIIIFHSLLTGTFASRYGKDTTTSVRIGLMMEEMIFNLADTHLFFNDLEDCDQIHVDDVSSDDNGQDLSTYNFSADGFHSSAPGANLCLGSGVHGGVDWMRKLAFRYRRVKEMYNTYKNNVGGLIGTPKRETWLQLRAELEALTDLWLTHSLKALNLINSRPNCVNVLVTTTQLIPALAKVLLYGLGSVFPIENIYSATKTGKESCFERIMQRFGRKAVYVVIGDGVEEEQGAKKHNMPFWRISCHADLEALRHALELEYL
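Eya2 (0.2 uM) preincubated 10 min at ambient with compound, then OMFP substrate added at 50 uM; 10 min reaction in 50 mM HEPES pH 7.5, 50 mM NaCl, 5 uM MgCl2, 0.05% BSA, 1 mM DTT. Fluorescence read at Ex 485/Em 525 nm.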
ELG1 repair inh: blocks ELG1-dependent DNA repair in HEK293T cells. 2.3% of 330,000 active. Potency, µM (titrated, usually from 46.1 µM), inactives show at the highest dose activity change, negative = inhibition, usual class: inhibitors. AID 504467. HEK293T ELG1-luciferase reporter, luminescence, 16 h; DNA damage induced by 5-fluorouridine; further: potency means the concentration at half of the fitted maximal effect; on the % scale 0 is the no-effect control and ±100 the full control effect; nearly all actives have a fitted effect of over 55% in size
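DMSO vehicle served as the neutral condition. Each well held 2,000 cells given 5-fluorouridine plus compound; after 16 hr at 37 °C/5% CO2, ONE-Glo was added and luciferase measured 30 min later.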
TCR act: activators of T cell receptors; primary human leukocytes, anti-CD3, IL-2 HTRF, 48 h; Potency, µM (top dose mostly 9.22 µM), for the others: at the highest dose activation of IL-2 secretion, actives largely listed as activators; 330,000 tested, under 10 active; further: % of control where 0% means no effect
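IL-2 produced over 48 hr by a-CD3 bead-stimulated primary human leukocytes exposed to compounds was detected with a homogeneous time-resolved FRET immunoassay, 665nm acceptor signal after 320nm excitation.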
BCR signal inh: inhibitors of chronic active B-cell receptor signaling; AID 493014; ABC-DLBCL IkBa-CBG/CBR reporter, luminescence ratio, 4 h; Potency, µM (doses to about 46.1 µM), for the others: top-dose ratio change, negative = lower green/red ratio, usual class: inhibitors; 0.05% of 340,000 active; active means well fitted inhibition curve with a large enough effect in the signal ratio, with a control signal flat, not every such curve was filed as active; inconclusive means small, poorly fitted or top-dose-only effect, or effect the other way, or a change in a side signal; the % refers to the signal ratio;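 further: potency means the concentration at half of the fitted maximal effect; plate controls were basal doxycycline-induced cells for no effect and cells given 10 µM MG132 for full effect; MG132 reads +100%, hits lower the ratio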
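Cell line TMD8 (human ABC DLBCL), stably expressing tet-inducible CBG68-IkBa fusion and CBR; IMDM/0.5% FBS; cpd up to 46 uM; dox induction, 4 h, 37C/5% CO2; dual luminescence; green/red ratio; MG132 control.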
TSG101-PTAP inh: blocks PTAP/TSG101 interaction to inhibit HIV-1 budding; Q99816; Fluorescence polarization, FITC-PTAP peptide / Tsg101 binding; Potency, µM (doses to about 115 µM), without a hit: at the top dose activity change, negative = inhibition, hits mostly inhibitors; 340,000 tested, under 10 active; active means well fitted inhibition curve with a large enough effect in the main read-out, with a control signal flat, not every such curve was filed as active; inconclusive means small, poorly fitted or top-dose-only effect, or effect the other way, or a change in a side signal; inactive means no such curve, though single readings can be large or run the other way; further: potency means the concentration at half of the fitted maximal effect; % of control where 0% means no effect
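Steps: Tsg101 binding domain dispensed (10 uM final), compounds pinned in DMSO, FITC-labeled PTAP-motif peptide added (50 nM final); after 20 min binding at room temperature, polarization measured.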
Mito fusion act: blocks mitochondrial division or promotes mitochondrial fusion; S. cerevisiae fusion-defective mutant growth rescue, CellTiterGlo 48 h; Potency, µM (series often up to 46.1 µM), for inactives: at the highest dose growth rescue (activation), hits mostly activators; 0.23% of 320,000 active; AID 485298;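 further: potency means the concentration at half of the fitted maximal effect; % of control where 0% means no effect; nearly all actives have a fitted effect of over 45% in size; temperature-sensitive fusion mutants such as fzo1-1 at 37 °C on non-fermentable ethanol glycerol medium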
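Yeast fusion mutant, YPEG (non-fermentable carbon), compound, 48 h at 37C non-permissive; CellTiterGlo added, 10 min RT, luminescence read. Rescued growth = division inhibition.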
TSHR antag: blocks TSH signaling through the human TSH receptor; P16473; TSHR-expressing cells, TSH-stimulated cAMP HTRF, 2 h; hits give low values; activity change, negative = inhibition, % at 11.5 µM; 0.2% of 330,000 active;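 active means activity change below a set negative limit, meaning inhibition stronger than a set level, cut at about -70% in these data; inconclusive means activity change between two set negative limits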; further: on the % scale 0 is the no-effect control and ±100 the full control effect
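Read-out is FRET at 665 nm (cryptate excitation 337 nm) from a cryptate-tagged anti-cAMP antibody, competed by cell cAMP against cAMP-d2. Compounds are tested on freshly harvested TSHR cells challenged with 4nM TSH (EC80) for 2 hours at 37 deg C.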
An asterisk follows results filed as active; ? = inconclusive; · = no result given; & = joins results of further samples; ! = not confirmed by another sample. Unless noted, the call rests on the fitted dose curve; in most records, active means well fitted curve in the direction sought with a large enough effect; inconclusive means small, poorly fitted or top-dose-only effect, or another doubt; inactive means no such curve, though single readings can be large; an effect the other way counts as inactive or inconclusive. Not all compounds are listed (hit frequency here may not be typical).

SMILES | uPA surface inh | Tb PFK inh | USP2a inh | Eya2 phos inh | ELG1 repair inh | TCR act | BCR signal inh | TSG101-PTAP inh | Mito fusion act | TSHR antag
O=C(CCc1ccc(O)cc1)c1c(O)cc(O)cc1O | -2.2% | 11.4% | 4.1% | -3.1%&1.6% | 9.1% | 4.8% | ? | -2.4% | ? | -16.8&9.1
CN(C)CCC(c1ccc(Cl)cc1)c1ccccn1 (stereo unspecified) | -8.4%&-0.1% | 0.9%&4.5%&-0.8% | 2.8%&4.9%&-1.9% | 0.8%&7.1%&0.4%&-13.1% | 2.6%&-0.4% | 6.6%&4.9% | ? | -2.5%&0.4% | 2.3%&-3.7%&4.9%&-2.6% | -10.8&3.5&-1.3&3.8
CC(C)(C)NCC(O)c1cc(O)cc(O)c1 (stereo unspecified) | -10.4% | 2.0% | 3.0% | -5.9%&3.7% | 12.0% | -7.3% | -3.2% | 0.4% | -21.5%&-2.8% | -8.9&6.0
OCC(O)[C@@H](O[C@H]1O[C@H](CO)[C@@H](O)[C@H](O)[C@H]1O)[C@H](O)[C@@H](O)CO (stereo partly specified) | 21.5% | -4.0% | 1.4% | 6.6% | 1.0% | -0.2% | -7.5% | -0.8% | -2.4% | -5.7
C=C(CC)C(=O)c1ccc(OCC(=O)O)c(Cl)c1Cl | 4.47µM* | 12.8% | 5.0% | -2.6% | -13.5% | -1.3% | ? | -3.6% | 0.1% | -28.9
CO[C@H]1C=CO[C@@]2(C)Oc3c(C)c(O)c4c(O)c(c5c(nc6cc(C)ccn65)c4c3C2=O)NC(=O)C(C)=CC=C[C@H](C)[C@H](O)[C@@H](C)[C@@H](O)[C@@H](C)[C@H](OC(C)=O)[C@@H]1C | · | -6.6% | -8.6% | -2.6% | · | · | 24.4% | · | 0.8% | -7.5
CN(C)CC/C=C1/c2ccccc2COc2ccccc21 | · | -0.2% | 3.0% | 2.3% | · | · | ? | · | 3.8% | 2.7
CC(=O)C1CCC2C3CCC4CC(=O)CCC4(C)C3C=CC12C (stereo unspecified) | -5.6% | · | · | · | · | 3.9% | · | -0.3% | · | ·
O[C@@H](c1cc(C(F)(F)F)nc2c(C(F)(F)F)cccc12)[C@H]1CCCCN1 | -18.8% | -0.1% | -2.0% | -2.0% | 15.1% | 5.7% | ? | 2.7% | -3.1% | -8.6
C[C@]12C=CC(=O)C=C1CC[C@@H]1[C@@H]2C(=O)C[C@@]2(C)[C@H]1CC[C@]2(O)C(=O)CO | -23.7%&2.9% | 0.0%&-0.1% | 5.5%&1.0% | 10.9%&5.0% | 5.2%&11.5% | -4.5%&17.9% | ? | 0.3%&1.1% | -0.5%&3.9% | -3.0&34.7
CNCC(O)C(O)C(O)C(O)CO (stereo unspecified) | 11.4% | -4.6% | -1.9% | 1.3% | 2.1% | -2.7% | -8.0% | 0.2% | -2.8% | -8.4
O=C1CCc2ccc(OCCCCN3CCN(c4cccc(Cl)c4Cl)CC3)cc2N1 | 1.7% | -0.5% | -11.0% | 11.9% | · | -8.6% | ? | 0.1% | 3.0% | 19.5
CC12C=CC(=O)C=C1CCC1C2C(=O)C[C@@]2(C)C1CCC2(O)C(=O)CO (stereo partly specified) | -5.3% | · | · | · | · | -3.1% | · | 0.0% | · | ·
CCC(=O)O[C@@H]1CC(=O)O[C@H](C)CC=CC=C[C@@H](O)[C@H](C)C[C@H](CC=O)[C@H](O[C@H]2O[C@H](C)[C@@H](O[C@H]3C[C@@](C)(O)[C@@H](OC(=O)CC)[C@H](C)O3)[C@H](N(C)C)[C@H]2O)[C@H]1OC | · | 13.0% | -3.1% | -7.3% | ? | · | 2.2% | · | 17.2% | 4.0
COc1cc(NS(C)(=O)=O)ccc1Nc1c2ccccc2nc2ccccc12 | -91.1% | -6.6% | -1.5% | -7.5%&-6.5% | ? | 7.7% | ? | -3.2% | ? | 5.8&1.4

Compounds shown so far that contain a Cl atom, in the order listed:
SMILES | uPA surface inh | Tb PFK inh | USP2a inh | Eya2 phos inh | ELG1 repair inh | TCR act | BCR signal inh | TSG101-PTAP inh | Mito fusion act | TSHR antag
CN(C)CCC(c1ccc(Cl)cc1)c1ccccn1 (stereo unspecified) | -8.4%&-0.1% | 0.9%&4.5%&-0.8% | 2.8%&4.9%&-1.9% | 0.8%&7.1%&0.4%&-13.1% | 2.6%&-0.4% | 6.6%&4.9% | ? | -2.5%&0.4% | 2.3%&-3.7%&4.9%&-2.6% | -10.8&3.5&-1.3&3.8
C=C(CC)C(=O)c1ccc(OCC(=O)O)c(Cl)c1Cl | 4.47µM* | 12.8% | 5.0% | -2.6% | -13.5% | -1.3% | ? | -3.6% | 0.1% | -28.9
O=C1CCc2ccc(OCCCCN3CCN(c4cccc(Cl)c4Cl)CC3)cc2N1 | 1.7% | -0.5% | -11.0% | 11.9% | · | -8.6% | ? | 0.1% | 3.0% | 19.5

Remaining list, next part
SMILES | uPA surface inh | Tb PFK inh | USP2a inh | Eya2 phos inh | ELG1 repair inh | TCR act | BCR signal inh | TSG101-PTAP inh | Mito fusion act | TSHR antag
CC1=NS(=O)(=O)c2cc(Cl)ccc2N1 | 26.8% | -3.3% | -2.3% | 2.4%&-4.1% | -1.2% | -4.4% | -18.2% | -2.1% | ? | 16.9&12.2
CC(C)c1nc(CN(C)C(=O)N[C@H](C(=O)N[C@@H](Cc2ccccc2)C[C@H](O)[C@H](Cc2ccccc2)NC(=O)OCc2cncs2)C(C)C)cs1 | · | -1.8% | -0.3% | -0.8% | · | · | ? | · | -0.6% | 10.3
Nc1ccc(S(=O)(=O)Nc2ccccn2)cc1 | 16.8% | -3.4% | 1.2% | 2.3% | 5.2% | 3.6% | 4.0% | -0.3% | 1.4% | 15.4
Cc1cc(C(=O)NNCc2ccccc2)no1 | 25.5% | -0.3% | -3.1% | 9.7% | 20.7% | 1.0% | ? | -0.4% | 1.2% | 5.4
CC(=O)CC(c1ccc([N+](=O)[O-])cc1)c1c(O)c2ccccc2oc1=O (stereo unspecified) | 16.5% | -3.8% | 0.9% | 18.2% | -3.4% | 6.9% | 8.1% | -2.3% | 1.7% | -6.3
CCN1CCC[C@H]1CNC(=O)c1c(OC)ccc(Br)c1OC | 20.5% | -6.7% | 1.9% | 18.9% | 8.1% | 0.7% | -4.8% | 1.9% | 3.9% | 1.5
C#CC1(O)CCC2C3CCC4=C(CCC(=O)C4)C3CCC21C (stereo unspecified) | -1.9% | · | · | · | · | 3.0% | · | -3.1% | · | ·
CC(C)NCC(O)c1ccc(NS(C)(=O)=O)cc1 (stereo unspecified) | 3.2% | -0.3% | 15.4% | -5.9%&10.3% | · | 0.1% | 6.1% | -1.5% | -14.2%&-5.8% | -14.6&5.7
CC(C)Oc1ccc2c(=O)c(-c3ccccc3)coc2c1 | -18.1% | -6.1%&-2.4% | 0.1%&-0.9% | 3.3%&1.2% | ? | 5.5% | ? | -6.3% | 25.1µM*! | -32.6&-34.0
CCCC(=O)Nc1ncnc2c1ncn2[C@@H]1O[C@@H]2COP(=O)(O)O[C@H]2[C@H]1OC(=O)CCC | ? | -2.8% | 0.2% | 2.7% | ? | -2.8%&-5.0% | ? | 1.5%&2.6% | 5.5% | 253.7
CCC1(c2ccccc2)NC(=O)N(C)C1=O (stereo unspecified) | 11.6% | -5.0% | 0.9% | -28.9% | -7.8% | 6.5% | 1.7% | -2.5% | 10.4% | -2.1

Record cards, from the list above:
Results for `CC(C)Oc1ccc2c(=O)c(-c3ccccc3)coc2c1` → uPA surface inh = -18.1%; Tb PFK inh = -6.1%&-2.4%; USP2a inh = 0.1%&-0.9%; Eya2 phos inh = 3.3%&1.2%; ELG1 repair inh = ?; TCR act = 5.5%; BCR signal inh = ?; TSG101-PTAP inh = -6.3%; Mito fusion act = 25.1µM*!; TSHR antag = -32.6&-34.0
Results for `CC(C)NCC(O)c1ccc(NS(C)(=O)=O)cc1` (stereo unspecified) → uPA surface inh = 3.2%; Tb PFK inh = -0.3%; USP2a inh = 15.4%; Eya2 phos inh = -5.9%&10.3%; ELG1 repair inh = ·; TCR act = 0.1%; BCR signal inh = 6.1%; TSG101-PTAP inh = -1.5%; Mito fusion act = -14.2%&-5.8%; TSHR antag = -14.6&5.7

Copied from the list:
uPA surface inh, `CC(=O)CC(c1ccc([N+](=O)[O-])cc1)c1c(O)c2ccccc2oc1=O` (stereo unspecified) reads 16.5%
TSG101-PTAP inh, `C#CC1(O)CCC2C3CCC4=C(CCC(=O)C4)C3CCC21C` (stereo unspecified) reads -3.1%
